Bioassay records from PubChem.
H5N1 CPE – MDCK cell protection from H5N1 avian flu; hit rate 0.07% among 96,000; cytopathic effect, luminescence, 72 h; stronger effect = higher value; no value below 0 was filed and about half of the inactive calls have no number; reference of the scale not given here; inhibition, % at 50 µM; in the data active = inhibition above about 25%
Numbers without * were called inactive. Only part of the results is shown, so the mix of outcomes need not match the whole.

Sample of the layout, two compounds:
How did CC1=C(C(=O)OCC2CCCO2)C(c2ccccc2OC(C)C)C2=C(CC(c3ccco3)CC2=O)N1 (stereo unspecified) do in these assays?
H5N1 CPE: 0.3

What do the screens show for `Cc1ccc(C2CC(c3cccs3)=NN2C(=O)CSC2=NN3CCCC(=O)N=C3S2)cc1` (stereo unspecified)?
H5N1 CPE: 7.8

Main list, previewed entries included:
How did CC1=C(C(=O)OCC2CCCO2)C(c2ccccc2OC(C)C)C2=C(CC(c3ccco3)CC2=O)N1 (stereo unspecified) do in these assays?
H5N1 CPE: 0.3

What do the screens show for `Cc1ccc(C2CC(c3cccs3)=NN2C(=O)CSC2=NN3CCCC(=O)N=C3S2)cc1` (stereo unspecified)?
H5N1 CPE: 7.8

How did O=C(NC1CC2CCCC(C1)N2C(=O)NCc1ccccc1)C1CC1 (stereo unspecified) do in these assays?
H5N1 CPE: 0.8

Results for CC1CCCC(NC(=O)COC(=O)Cc2ccccc2)C1C (stereo unspecified) ?
H5N1 CPE: 0.6

How did COc1cc(CC2C(=O)N(C)C(=O)N(C)C2=O)ccc1OCc1ccccc1 do in these assays?
H5N1 CPE: 0.7

Results for NS(=O)(=O)c1ccc(NC(=O)CSc2ccccn2)cc1 ?
H5N1 CPE: inactive

Results for COc1ccc(/C=N/OCC(=O)N2CC3(C)CC2CC(C)(C)C3)cc1OC (stereo unspecified) ?
H5N1 CPE: 1.3

Results for Cc1[nH]c2ccc(-c3n[nH]c(=S)n3C)cc2c1C ?
H5N1 CPE: 0.1

Results for COc1ccc2c(CC(=O)OCC(=O)c3ccc(F)cc3)coc2c1 ?
H5N1 CPE: 1.0

Results for CCOC(=O)c1cnc(SCC(=O)c2ccc3c(c2)OCCO3)nc1N ?
H5N1 CPE: inactive

What do the screens show for `O=C(CSc1ccccc1)Nc1cccc(NC(=O)c2ccco2)c1`?
H5N1 CPE: inactive

How did CCN1CCN(Cc2cc(Br)cc(Br)c2O)CC1 do in these assays?
H5N1 CPE: 0.6

Ordered by count of non-hydrogen atoms (falling): 3 of the compounds above.
How did CC1=C(C(=O)OCC2CCCO2)C(c2ccccc2OC(C)C)C2=C(CC(c3ccco3)CC2=O)N1 (stereo unspecified) do in these assays?
H5N1 CPE: 0.3

Results for COc1ccc2c(CC(=O)OCC(=O)c3ccc(F)cc3)coc2c1 ?
H5N1 CPE: 1.0

Results for CC1CCCC(NC(=O)COC(=O)Cc2ccccc2)C1C (stereo unspecified) ?
H5N1 CPE: 0.6

More compounds follow:
What do the screens show for `Cc1ccc(C(C)n2cc(C(=O)NCCN3CCN(C)CC3)nn2)cc1` (stereo unspecified)?
H5N1 CPE: inactive

Results for CSc1ccccc1-c1nnc(-c2ccc(Cl)c(Cl)c2)o1 ?
H5N1 CPE: inactive

What do the screens show for `COC(=O)c1c(-c2ccc(C)cc2)csc1N`?
H5N1 CPE: inactive

Results for O=C(N/N=C/c1ccc(Cl)cc1Cl)c1cccc(F)c1 ?
H5N1 CPE: inactive

What do the screens show for `CCCNC(=O)CS(=O)Cc1nc(-c2cccc(OC)c2)oc1C` (stereo unspecified)?
H5N1 CPE: 1.5

How did COc1cc(-n2c(C)nc3cc(C(=O)N4CCOCC4)ccc32)cc(OC)c1OC do in these assays?
H5N1 CPE: 1.4

How did C=CCSc1nc2c(c(=O)[nH]c(=O)n2C)n1CC do in these assays?
H5N1 CPE: 1.4

Results for Cc1c(NC(=O)c2ccc3c(c2)OCO3)cccc1-c1nc2ccccc2o1 ?
H5N1 CPE: inactive

How did CC(=O)Nc1cc(C(F)(F)F)ccc1Oc1cccc(Br)c1 do in these assays?
H5N1 CPE: inactive

How did O=C(Cc1ccccc1)N/N=C/c1ccc(OCC(=O)Nc2ccccc2)cc1 do in these assays?
H5N1 CPE: inactive

How did CC1CCc2cc(F)ccc2N1C(=O)c1ccc2c(c1)OCO2 (stereo unspecified) do in these assays?
H5N1 CPE: inactive

What do the screens show for `Cc1nc(NS(=O)(=O)c2cccs2)c2c3c(sc2n1)CCC3`?
H5N1 CPE: 2.0

How did CC(C)(C)n1nnnc1CN(Cc1ccc(F)cc1)Cc1ccco1 do in these assays?
H5N1 CPE: 22

What do the screens show for `CCC(CC)C(=O)Nc1cc(=O)n(C)c(=O)n1C`?
H5N1 CPE: 1.4

What do the screens show for `COc1ccc(OC)c(NC(=O)C2CC(C)=C(C)CC2C(=O)O)c1` (stereo unspecified)?
H5N1 CPE: inactive

What do the screens show for `Nc1nnc(SCc2ccccc2Cl)s1`?
H5N1 CPE: 0.1

How did CCCCOC(=O)C(C)c1c(C)[nH]c(=S)[nH]c1=O (stereo unspecified) do in these assays?
H5N1 CPE: inactive

How did CCn1cc(C(=O)NCc2cccc(F)c2)c(=O)c2cc(F)c(N3CCN(C(=O)c4ccco4)CC3)cc21 do in these assays?
H5N1 CPE: inactive

How did Cc1ccc(CSc2nnnn2C)cc1 do in these assays?
H5N1 CPE: 0.2

How did NC(=O)C1(N2CCCCC2)CCN(C(=O)c2ccc(C#CC3(O)CCCCC3)cc2)CC1 do in these assays?
H5N1 CPE: inactive

Results for CCC(C)(C)NC(=O)C(c1ccco1)N(C(=O)Cn1nnc2ccccc21)c1ccc2c(c1)OCO2 (stereo unspecified) ?
H5N1 CPE: inactive

What do the screens show for `Cc1nn(C)c(C)c1CN(C)C(=O)c1cnn2c1NC(c1ccccc1)CC2C(F)(F)F` (stereo unspecified)?
H5N1 CPE: inactive

What do the screens show for `CCCCOc1ccccc1P(=O)(O)CP(=O)(c1ccccc1)c1ccccc1`?
H5N1 CPE: 0.5

Results for CC(CC(=O)Nc1ccc2c(c1)OCCO2)c1ccccc1 (stereo unspecified) ?
H5N1 CPE: inactive

Results for CC1(C)Cc2nc(-c3ccccc3)n3cnnc3c2CO1 ?
H5N1 CPE: 1.8

How did CN(C)CC(=O)N1c2ccccc2CCc2ccc(NC(=O)c3ccc(N)cc3)cc21 do in these assays?
H5N1 CPE: inactive

What do the screens show for `COc1ccc(NC(=S)Nc2ncccc2C)c(OC)c1`?
H5N1 CPE: inactive

How did CCOC(=O)N1CCN(C(=O)C2CCN(S(=O)(=O)c3cc(Cl)ccc3Cl)CC2)CC1 do in these assays?
H5N1 CPE: inactive

Results for COC(=O)Nc1ccc(NC(C)=O)cc1 ?
H5N1 CPE: 0.2

Results for Cc1noc(C)c1S(=O)(=O)N(C)CC(=O)Nc1ccc(F)cc1 ?
H5N1 CPE: 0.1

Results for Cc1ccc(NC(=O)Cc2nc(CSc3nnc(-c4ccc5c(c4)OCO5)o3)cs2)cc1 ?
H5N1 CPE: inactive

What do the screens show for `c1ccc(-c2nnc(SCCC3OCCCO3)o2)cc1`?
H5N1 CPE: inactive

What do the screens show for `CCCNC(=O)Nc1cc(C)on1`?
H5N1 CPE: inactive

How did O=C(NCc1ccco1)c1ccc(COCC(F)(F)C(F)F)cc1 do in these assays?
H5N1 CPE: 0.0

Results for On1c(-c2ccco2)nc2c1CCc1nonc1-2 ?
H5N1 CPE: 0.7

Results for COc1ccc(-n2nc(C(=O)Nc3ccc4c(c3)OCO4)c3ccccc3c2=O)cc1 ?
H5N1 CPE: inactive

What do the screens show for `CC1=CC(C)(C)N(S(=O)(=O)c2ccc(F)cc2)c2ccccc21`?
H5N1 CPE: 3.5

What do the screens show for `Cc1nnc2sc(-c3ccco3)nn12`?
H5N1 CPE: 1.7

What do the screens show for `COc1cccc(OC)c1C(=O)Nc1ccc(N2CCN(S(C)(=O)=O)CC2)cc1`?
H5N1 CPE: 0.1

What do the screens show for `COC(=O)c1ccc(N2CCOCC2)c(F)c1`?
H5N1 CPE: 0.7

What do the screens show for `CCN(CC)C(c1ccc(F)cc1)c1nnnn1CC1CCCO1` (stereo unspecified)?
H5N1 CPE: 1.3

How did Cc1cc(-c2ccccc2)nc2cc(C(N)=O)nn12 do in these assays?
H5N1 CPE: 2.0

What do the screens show for `COc1cc(Cl)c(C)cc1NC(=O)COC(=O)c1cnc(C)cn1`?
H5N1 CPE: 0.3

How did CCCn1nc2cc(C(=O)NCCCCc3ccccc3)ccc2c1OCC do in these assays?
H5N1 CPE: 2.6

How did N#Cc1cccc(NC(=O)c2nc(-c3ccccc3)n(-c3ccccc3)n2)c1 do in these assays?
H5N1 CPE: inactive

Results for O=[N+]([O-])c1ccc(C(=S)N2CCN(Cc3ccccc3)CC2)cc1 ?
H5N1 CPE: 0.5

How did Cc1oc2c(cc(NS(=O)(=O)c3ccc4c5c(cccc35)C(=O)N4)c3ccccc32)c1C(=O)OC(C)C do in these assays?
H5N1 CPE: inactive

What do the screens show for `Cc1cc(C)c(S(=O)(=O)n2ccc3ccccc32)c(C)c1`?
H5N1 CPE: 2.8

Results for Cc1occc1C(=O)NCCc1ccc(Cl)cc1 ?
H5N1 CPE: inactive

What do the screens show for `CCc1ccc2c(c1)C(c1cccs1)=NNC(c1cccnc1)=N2`?
H5N1 CPE: inactive

Results for O=c1[nH]c(C2CCCN(S(=O)(=O)c3ccc(F)cc3)C2)nc2c1nnn2Cc1ccccc1 (stereo unspecified) ?
H5N1 CPE: 5.3

What do the screens show for `O=C(NCCc1cccs1)C1CC(c2ccc([N+](=O)[O-])cc2)=NO1` (stereo unspecified)?
H5N1 CPE: 1.3

How did NS(=O)(=O)c1ccc(CCNC2CC(=O)N(Cc3ccccc3)C2=O)cc1 (stereo unspecified) do in these assays?
H5N1 CPE: 0.7

What do the screens show for `O=C(NCC1CCCO1)C1CC(c2ccccc2Cl)=NO1` (stereo unspecified)?
H5N1 CPE: inactive

How did COc1ccc(CCNC(=O)c2c(C)noc2C)cc1 do in these assays?
H5N1 CPE: inactive

What do the screens show for `COc1cc2c(C(=O)N3CCN(c4cccc(Cl)c4)CC3)cn(C)c(=O)c2cc1OC`?
H5N1 CPE: inactive

What do the screens show for `O=C(c1ccncc1)c1nccn1-c1ccccn1`?
H5N1 CPE: 0.8

Results for CCC(=O)Nc1cc2c(C)cc(=O)oc2cc1C ?
H5N1 CPE: inactive

How did COc1cc(C(=O)NCCC(=O)NCCN2CCOCC2)cc(OC)c1OC do in these assays?
H5N1 CPE: inactive

How did Cc1cccc(C(=O)N=c2c(C#N)cc3c(=O)n4cccc(C)c4nc3n2Cc2ccco2)c1 do in these assays?
H5N1 CPE: 4.4

How did CCN(CC)C(=O)CSc1nnc(CCN)o1 do in these assays?
H5N1 CPE: inactive

What do the screens show for `O=C1C2C3C=CC(C3)C2C(=O)N1c1ccncc1` (stereo unspecified)?
H5N1 CPE: inactive

How did O=C(NCc1ccco1)C(C(=O)c1ccc(F)cc1)n1ccccc1=O (stereo unspecified) do in these assays?
H5N1 CPE: 0.2

How did Cc1cc(C)nc(NS(=O)(=O)c2ccc(NC(=O)CN3C(=O)c4ccccc4C3=O)cc2)n1 do in these assays?
H5N1 CPE: 0.6

Results for CCOc1cccc(OCCCNCCCOC)c1 ?
H5N1 CPE: 2.3

How did Cc1ccc(-n2nc3ccc(NC(=O)c4ccc5c(c4)OCO5)cc3n2)cc1 do in these assays?
H5N1 CPE: 0.8

How did N/C(=N\OC(=O)c1ccc(Cl)cc1)c1cccnc1 do in these assays?
H5N1 CPE: inactive

Results for O=C(OCC(O)C(O)COC(=O)c1ccccc1)c1ccccc1 (stereo unspecified) ?
H5N1 CPE: 0.5

Results for Cc1ccc(C(C(=O)NC2CCCCC2)N(C(=O)c2csnn2)C2CCCC2)o1 (stereo unspecified) ?
H5N1 CPE: inactive

What do the screens show for `Cc1cc(Oc2ccccc2)nc(SCC(=O)Nc2ccc(Cl)cc2Cl)n1`?
H5N1 CPE: 0.2

What do the screens show for `CC(=O)Nc1cccc(NC(=O)C2CCCN2C(=O)Nc2cccc(F)c2)c1` (stereo unspecified)?
H5N1 CPE: 0.9

How did O=C1CC(N2CCN(c3ccc(S(=O)(=O)N4CCCC4)cc3)CC2)C(=O)N1c1ccc(F)cc1 (stereo unspecified) do in these assays?
H5N1 CPE: 0.5

Reprinted at random: 7 records from the list.
How did Cc1cc(C)nc(NS(=O)(=O)c2ccc(NC(=O)CN3C(=O)c4ccccc4C3=O)cc2)n1 do in these assays?
H5N1 CPE: 0.6

Results for CCOc1cccc(OCCCNCCCOC)c1 ?
H5N1 CPE: 2.3

How did O=C(NCc1ccco1)C(C(=O)c1ccc(F)cc1)n1ccccc1=O (stereo unspecified) do in these assays?
H5N1 CPE: 0.2

How did N/C(=N\OC(=O)c1ccc(Cl)cc1)c1cccnc1 do in these assays?
H5N1 CPE: inactive

Results for Cc1ccc(C(C(=O)NC2CCCCC2)N(C(=O)c2csnn2)C2CCCC2)o1 (stereo unspecified) ?
H5N1 CPE: inactive

Results for O=C(OCC(O)C(O)COC(=O)c1ccccc1)c1ccccc1 (stereo unspecified) ?
H5N1 CPE: 0.5

What do the screens show for `Cc1cc(Oc2ccccc2)nc(SCC(=O)Nc2ccc(Cl)cc2Cl)n1`?
H5N1 CPE: 0.2

(further entries)
Results for CCN(CC)CCOC(=O)c1cccc(OC)c1 ?
H5N1 CPE: 5.7

How did CCOc1ccccc1C1CC(=O)NC2=C1C(=O)CC(C)(C)C2 (stereo unspecified) do in these assays?
H5N1 CPE: 0.6

Results for O=c1[nH]c(=O)n(C2CCCO2)cc1Br (stereo unspecified) ?
H5N1 CPE: inactive

Results for COc1ccc(/C=C/C(=O)c2ccc(Cl)cc2)c(OC)c1 ?
H5N1 CPE: 0.2

How did Cc1ccc(/C=C/C(=O)O)cc1S(=O)(=O)NCCCO do in these assays?
H5N1 CPE: 1.5

How did CCCS/C(N)=N/N=C/c1cc(C)ccc1O do in these assays?
H5N1 CPE: inactive

What do the screens show for `O=c1c2ccccc2oc2ncccc12`?
H5N1 CPE: inactive

What do the screens show for `O=C1CSC2(CN3CCC2CC3)N1` (stereo unspecified)?
H5N1 CPE: inactive

What do the screens show for `CCOC(=O)c1oc2cc(C)cc(O)c2c(=O)c1-c1csc(C)n1`?
H5N1 CPE: inactive

What do the screens show for `Clc1c(CSc2nc3ccccc3o2)nc2ccccn12`?
H5N1 CPE: 1.1

Results for Cc1ccc(S(=O)(=O)/N=C(\CN2CCCCC2)N2CCOCC2)cc1 ?
H5N1 CPE: inactive

Results for Cc1cc(Cl)ccc1N(CC(=O)N=Nc1c(O)[nH]c2ccccc12)S(C)(=O)=O ?
H5N1 CPE: 1.1

What do the screens show for `CNC(=O)NC(=O)CSc1ccc(NC(C)=O)cc1`?
H5N1 CPE: 0.2
